D2 PAM – human D2 receptor positive allosteric modulation | P14416 | DiscoveRx D2 beta-arrestin cells, luminescence, 90 min; 100% = 57 uM dopamine signal | potentiation, % (no concentration beside the values) | actives 0.23% (n = 360,000) | AID 624464; active = potentiation of 50% or more; inconclusive = 30% to 50%; inactive = 30% or less;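 further: compound concentration not given in the record; tested on top of an EC20 dose of dopamine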
Target sequence (P14416 whole entry, looked up): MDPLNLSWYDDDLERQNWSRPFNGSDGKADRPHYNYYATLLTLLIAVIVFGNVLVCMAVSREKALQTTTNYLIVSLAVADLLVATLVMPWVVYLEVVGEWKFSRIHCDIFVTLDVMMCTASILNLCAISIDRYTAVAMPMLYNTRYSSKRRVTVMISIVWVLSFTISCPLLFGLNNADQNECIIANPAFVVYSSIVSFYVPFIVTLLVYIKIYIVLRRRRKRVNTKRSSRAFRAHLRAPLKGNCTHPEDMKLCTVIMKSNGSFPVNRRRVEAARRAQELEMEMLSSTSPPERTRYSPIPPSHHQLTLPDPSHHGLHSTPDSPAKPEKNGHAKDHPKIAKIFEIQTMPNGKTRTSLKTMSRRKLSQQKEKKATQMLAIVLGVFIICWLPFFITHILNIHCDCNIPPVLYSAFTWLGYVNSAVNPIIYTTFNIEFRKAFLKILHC
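PathHunter D2 cells, attached overnight at 37 deg C, received compound in DMSO plus dopamine at EC20 (50 nM final) for 90 min at 37 deg C. Beta-arrestin recruitment was read as luminescence after 1 h with detection reagent at ambient temperature.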
Six1-Eya2 blk – Six1/Eya2 interaction inhibition. activity change, % (no concentration beside the values). actives 0.56% (n = 360,000). Q15475+O00167. AID 651725. AlphaScreen GST-Six1/His-Eya2 binding, biochemical; active compounds read low; control for the full effect not named in the record; in the data active = activity change below about -65%; inconclusive = about -30% to -65%; inactive = above about -30%; further: on the % scale 0 is the no-effect control and ±100 the full control effect
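Compounds are tested against tagged Six1 and Eya2 proteins bridged by glutathione donor and nickel acceptor beads; after a one-hour incubation at 37 °C without light, AlphaScreen emission is recorded.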
CtBP-E1A inh – inhibitors of CtBP/E1A interaction; AlphaScreen GST-E1A/His-CtBP binding, 1536-well; active compounds read low; control for the full effect not named in the record; activity change, % (no concentration beside the values); actives 0.49% (n = 340,000); AID 651724; in the data active means activity change below about -65%; inconclusive means about -30% to -65%; inactive means above about -30%; further: on the % scale 0 is the no-effect control and ±100 the full control effect
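AlphaScreen with 125 nM GST-E1A and 125 nM His-CtBP (5X stocks) in Tris pH 8.0, 300 mM NaCl, BSA, Tween 20, TCEP. Compounds preincubated 2 h at 37 deg C, then glutathione donor/nickel acceptor beads added for 1 h at 37 deg C in dark.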
TRPML1 agonist – activates the human TRPML1 channel | Q9GZU1 | TRPML1-expressing cells, Ca2+ dye fluorescence, FDSS; host cell line not named in the record; reference of the full effect not given here | activation, % (no concentration beside the values) | actives 0.12% (n = 410,000) | AID 624414; in the data active = activation above about 50%; inconclusive = about 30% to 50%; inactive = below about 30%; further: 0% is about no effect; the text of the record puts the active cut at 80%
Target sequence (Q9GZU1 whole entry, looked up): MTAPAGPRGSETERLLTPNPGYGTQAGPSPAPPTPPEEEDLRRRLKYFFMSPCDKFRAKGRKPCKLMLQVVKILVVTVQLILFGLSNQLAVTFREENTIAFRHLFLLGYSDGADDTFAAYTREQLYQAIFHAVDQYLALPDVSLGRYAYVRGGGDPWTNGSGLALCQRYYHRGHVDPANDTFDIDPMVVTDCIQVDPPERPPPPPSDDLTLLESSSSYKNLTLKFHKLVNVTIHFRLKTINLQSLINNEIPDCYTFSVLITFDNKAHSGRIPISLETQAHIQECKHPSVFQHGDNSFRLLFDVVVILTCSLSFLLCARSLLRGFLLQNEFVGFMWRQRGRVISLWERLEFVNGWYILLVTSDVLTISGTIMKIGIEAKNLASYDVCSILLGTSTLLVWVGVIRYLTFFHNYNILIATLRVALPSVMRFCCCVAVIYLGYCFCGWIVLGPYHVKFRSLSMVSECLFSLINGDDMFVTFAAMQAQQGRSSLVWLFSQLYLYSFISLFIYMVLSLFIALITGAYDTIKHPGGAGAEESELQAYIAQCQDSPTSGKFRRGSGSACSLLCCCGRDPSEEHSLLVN
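Tetracycline-induced TRPML1-DL cells are seeded and incubated overnight before loading with a no-wash Ca2+ dye and quencher. Agonist activity is taken from the 110 s fluorescence read following compound pin-transfer on an FDSS, before EC80 54-4 challenge.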
PINK1 modulator – modulators of PINK1 expression; Potency, µM (top dose mostly 76.6 µM), inactives show at the highest dose activation (PINK1 increase), usual class: activators; PINK1 immunofluorescence, high-content cytometry, 24 h; AID 624263; actives 0.2% (n = 410,000); active = well fitted activation curve with a large enough effect; inconclusive = small, poorly fitted or top-dose-only effect; inactive = flat fitted curve, though single readings scatter; cell line not stated here;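 further: potency means the concentration at half of the fitted maximal effect; % of control where 0% means no effect; nearly all actives have a fitted effect of over 65% in size; a mitochondrial uncoupler was the plate control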
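Decision-based qHTS: stable cells, 24 h exposure to five compound concentrations, CCCP as control. Fixed cells stained for PINK1 plus nuclear, mitochondrial and cell markers, cytometer read.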
D2 ag – human D2 receptor agonism in beta-arrestin assay; P14416; DiscoveRx PathHunter D2 beta-arrestin, luminescence, 90 min; 100% = 57 uM dopamine signal; activation, % (concentration not given with the values); actives 0.084% (n = 360,000); AID 624465; in the data active = activation above about 40%; inconclusive = about 15% to 40%; inactive = below about 15%; further: compound concentration not given in the record; the text of the record calls up to 30% inactive
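Agonist mode: compounds alone added to overnight-plated D2 PathHunter cells for 90 min at 37 C, with 57 uM final dopamine (EC100) defining full response. Beta-arrestin recruitment detected by chemiluminescent reagent, read after 1 h at ambient temperature.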
Numbers without * were called inactive; ? = inconclusive; nt = no result given; & = joins results of further samples; [ ] = another dose, or the depositor's remark.

Every second line gives: D2 PAM, Six1-Eya2 blk, CtBP-E1A inh, TRPML1 agonist, PINK1 modulator, D2 ag
COc1cccc(-c2ccc(C#N)c(OC(=O)c3ccc(Cl)cc3)n2)c1
 : -9, 0, -1, -1.2, -1.3%, -3.7
CC1(C(=O)NCCc2ccccc2)Cc2c(-c3cccc(C(F)(F)F)c3)ccnc2O1 (stereo not given)
 : -16, -3, 1, 0.5, -0.5%, 4.9
C/C(Cl)=C\COc1cc(C)nc2c(Br)cccc12
 : -2, 23, 35, 0.6, 10%, 3.0
Cn1c(SCC(=O)Nc2ccc3c(c2)n(C)c(=O)n3C)nnc1-c1ccncc1
 : -8, 24, 16, 0.2, 0.6%, 2.8
CCN(C(=O)c1c(C)cc(=O)oc1C)c1ccc2c(c1)OCO2
 : -2, 6, -1, 0.1, -0.9%, -1.1
Cc1nn(C)cc1S(=O)(=O)N1CCCC(C(=O)O)C1 (stereo not given)
 : -3, 16, 2, 0.9, 0.7%, -0.1
O=C(CN1CCN(S(=O)(=O)c2ccccc2[N+](=O)[O-])CC1)NC(=O)NCc1ccco1
 : -6, -8, 2, 3.3, -0.3%, 1.4
Cc1ccc2cc(CN(CC(C)C)C(=O)C3CCCO3)c(=O)[nH]c2c1 (stereo not given)
 : 3, 3, -1, -0.3, -6.4%[38.3 µM], 0.1
Cc1cc(C)cc(NC(=O)Nc2c(Br)cnn2C)c1
 : -11, -12, nt, 1.3, 2.7%, -2.9
COC(=O)c1c(NC(C)=O)sc2c1CCCCC2
 : -11, -3, 0, 1.7, 0.6%, -2.7
CC/C(=N\NC(=O)c1ccoc1C)c1ccc(C)o1
 : -3, 0, -15, -0.4, 0.3%, -5.8
Clc1ccc(N=C2SCC3CCCCN23)cc1 (stereo not given)
 : -4, 15, 19, 2.5, 3.8%, -2.5
COc1ccc2nc(NNC(=O)C3COc4ccccc4O3)sc2c1 (stereo not given)
 : -10, -2, -4, 1.1, -0.9%, 2.1
Cc1c(C(c2ccc([N+](=O)[O-])cc2)c2c(C)n(C)n(-c3ccccc3)c2=O)c(=O)n(-c2ccccc2)n1C
 : -21, 9, -1, 0.5, -0.3%, -1.4
CN1CCCN(S(=O)(=O)c2cccc(C(F)(F)F)c2)c2nc3ccccc3nc21
 : 0, 12, 17, -0.1, 3.7%, 4.7
CCOc1ccc(S(=O)(=O)Nc2nc3ccc(OC)cc3s2)cc1
 : -7, -7, -3, 0.3, -1.2%, -1.7
CCCNC(=O)COc1ccccc1[N+](=O)[O-]
 : -7, -3, 8, -0.7, 0.0%, -5.2
CC(C)c1nc(CNC(=O)CC2C(=O)NCCN2Cc2ccccc2)cs1 (stereo not given)
 : -12, 6, 1, -0.7, -2.0%, -1.0
CCOc1ccc(OCC(=O)Nc2ccc(S(N)(=O)=O)cc2)cc1
 : -7, 7, nt, -0.1, 1.5%, -5.4
CCCOc1ccc(C(=O)CCC(=O)OCC(=O)N(C)c2c(N)n(Cc3ccccc3)c(=O)[nH]c2=O)cc1
 : -11, 9, 1, -0.2, 2.5%, 0.5
CCCN1C(=O)/C(=C/c2ccc(OCC(=O)OCC)cc2)NC1=S
 : 1, 3, 0, 0.6, 6.8%, -5.7
Cc1ccc(NS(=O)(=O)c2ccc(C(C)(C)C)cc2)cn1
 : -3, -1, 3, 0.5, 3.2%, -2.7
O=C(COc1ccc([N+](=O)[O-])cc1Cl)NCCc1ccccc1
 : -10, 1, 2, -0.5, 4.3%, -3.8
CCn1c(=O)c(=O)[nH]c2c(=O)oc3ccc(S(=O)(=O)Nc4ccc(OC)cc4)cc3c21
 : -2, ?, -2, 1.7, 2.3%, -1.4
CCSc1nc2c(c(=O)[nH]c(=O)n2C)n1Cc1ccc(Cl)cc1
 : -4, 13, 4, 1.2, 16%, 4.0
CC(=O)N1CCc2cc(S(=O)(=O)NCc3ccc(C)cc3)ccc21
 : 2, 4, 5, -0.4, 5.7%, -0.3
O=C(c1cc(-c2ccccc2Cl)on1)N1CCCC1
 : -2, 2, 1, 2.7, 1.4%, -1.4
COc1ccc(/C=C2/SC(=O)N(CCC(=O)Nc3ccc(S(=O)(=O)Nc4nccs4)cc3)C2=O)cc1
 : 0, ?, -8, -0.4, 1.4%, -3.2
O=C(Nc1cccnc1)c1ccc(N2CCCC2)c([N+](=O)[O-])c1
 : -10, -4, -1, -0.5, -0.7%, -4.6
Cc1cc(OCC(=O)Nc2sc3c(c2C#N)CC(C)(C)NC3(C)C)c(C(C)C)cc1Cl
 : -2, 0, nt, -0.6, 9.1%, 3.3
CCOc1ccc2nc(NC(=O)/C=C/c3ccc4c(c3)OCO4)sc2c1
 : 1, 16, 6, -0.2, 4.5%, -1.4
C=C(C)C1CC=C(C)/C(=N/NC(=O)C2CC2c2ccccc2)C1 (stereo not given)
 : -10, 5, nt, 1.3, -0.7%, 2.1
N#C/C(=C\c1ccccc1C(=O)O)c1nc2ccccc2[nH]1
 : -2, 23, 0, -0.6, 2.3%, 0.6
COc1ccc(-c2coc3cc(O[C@@H]4O[C@H](CO)[C@@H](O)[C@H](O)[C@H]4O)ccc3c2=O)cc1
 : -3, -1, 3, 0.4, -1.1%, -3.0
COC(=O)N1[C@H](C)C=C[C@]1(Cc1ccccc1)C(=O)OC
 : -11, 1, 4, -0.2, 0.2%, -3.7
Cc1cc2cc(C)c3nnc(SCC(=O)NCc4ccc5c(c4)OCO5)n3c2cc1C
 : -22, ?, ?, 0.0, nt, -0.9
O=C(C1CCCO1)N1CCN(C(=S)Nc2ccc(F)c(Cl)c2)CC1 (stereo not given)
 : -2, 0, -1, 0.1, 0.8%, -4.6
CCn1c(=O)n(-c2ccc(Cl)cc2)c(=O)c2c3c(sc21)COC(C)(C)C3
 : 0, 3, 2, 1.7, -0.3%[38.3 µM], -1.8
CC(C)CC(NC(=O)OC(C)(C)C)C(=O)O (stereo not given)
 : -1, 4, 9, 0.5, 0.2%, 7.6
Nc1c(CNCc2nnn(Cc3ccccc3)c2N)nnn1Cc1ccccc1
 : -12, -1, -16, 0.0, 0.1%, -7.4
CCOc1ccc(NC(=O)N2CCc3ccccc3C2)cc1
 : -17, -8, 3, 0.7, -0.1%, -6.9
CC(C)CN(C(=O)COC(=O)Cc1ccc(Cl)cc1)c1c(N)n(Cc2ccccc2)c(=O)[nH]c1=O
 : 3, -3, 9, 0.3, ?, -5.2
CCOC(=O)N1CCN(C(=O)C[C@@H]2C[C@@]3(C(=O)OCC)CCC=C3N(Cc3ccc(Cl)cc3Cl)C2=O)CC1
 : nt, -8, 4, -0.9, -0.2%, nt
O[C@H]1C[C@H](c2ccccc2)N(Cc2cccs2)C[C@@H]1n1cc(C2CC2)nn1
 : nt, -4, 4, nt, -1.2%, 2.3
Cc1cccc(C)c1NC(=O)CNC(=O)Cn1nc(C)c(C)c(C#N)c1=O
 : -3, 1, -10, 0.0, -1.8%, 5.6
CCNC(=O)CNC(=O)c1nn(Cc2ccccc2)c(=O)c2ccccc12
 : 0, 8, -1, 2.4, 2.0%, -2.0
CCOc1ccc(NC(=O)c2cc(S(=O)(=O)N3CCCCC3)c[nH]2)cc1
 : -2, 4, 2, -1.3&2.4, 2.6%&3.5%, -5.8
Cc1cc(C)nc(SC2CC(=O)N(c3ccc(Cl)cc3)C2=O)n1 (stereo not given)
 : -4, -5, 0, 0.3, 4.4%, -1.2
O=C(CN1CCCCCC1)Nc1cccc(Br)c1
 : -9, 0, -1, 2.0, 2.9%, -2.7
CCC(C)c1c(O)nc(SCC(=O)N2CCOCC2)[nH]c1=O (stereo not given)
 : 4, 0, -9, 2.9, 2.0%[38.3 µM], -2.4
COc1ccccc1Nc1nc(Cl)nc(NC(C)(C)C)n1
 : 3, 19, 20, 2.3, 2.7%, -1.7
CSc1nc2nc3c(cc2c(=O)n1-c1ccccc1)COC(C)(C)C3
 : -3, -10, -4, -0.7, 1.7%, 0.1
COc1cc(C)c(S(=O)(=O)NOCc2ccccc2)c(C)c1C
 : -9, 1, nt, 0.8, 7.0%, 0.1
O=C(CNCc1ccc(F)cc1)Nc1ccccc1-c1ccccc1
 : -19, 2, 2, 0.8, 3.5%, 0.2
C#CC[N+]1(CC#Cc2ccccc2)CCCCC1
 : -17, 12, -15, -0.3, -1.5%, -3.1
C/C=C/C=C/C(=O)[C@@H]1[C@@H]([C@]2(C)OC(=O)C(C)=C2O)[C@H]2/C(=C(O)/C=C/C=C/C)C(=O)[C@]1(C)C(=O)C2(C)O (stereo not given in full)
 : -29, ?, 6, nt, 0.4%, -5.5
Cc1ccc2nc3c(cc2c1)c(NC(=O)c1cccnc1)nn3C
 : -15, -9, -8, 1.0, 1.2%, -3.8
N#Cc1c(NC(=O)c2ccc(Br)o2)n(-c2ccccc2)c2nc3ccccc3nc12
 : -3, -3, ?, 0.0, 0.0%, -2.2
CCOc1ccccc1NC(=O)NNC(=O)CCc1ccc(OC)cc1
 : -13, 6, 8, -0.3, 0.1%, 1.4
COc1ccc2nc(C)cc(SCC(=O)Nc3c(C)cc(C)cc3C)c2c1
 : -14, 0, 11, 0.2, -1.2%[38.3 µM], -2.1

Other records follow:
Every second line gives: D2 PAM, Six1-Eya2 blk, CtBP-E1A inh, TRPML1 agonist, PINK1 modulator, D2 ag
Oc1ccc(N2CCN(C(c3ccncc3)c3nnnn3C3CCCC3)CC2)cc1 (stereo not given)
 : 24, -1, -3, 0.1, 0.0%[38.3 µM], 6.9
Cc1c(C(=O)OCC(=O)NC(=O)NC2CCCCC2)cccc1[N+](=O)[O-]
 : -6, -1, -2, 0.7, 9.1%, 0.2
COc1ccc(-c2c(O)c(C#N)c(-c3ccccc3)n(-c3ccc(OC)cc3)c2=O)cc1
 : -16, -1, -1, 0.6, 0.9%, -6.5
CCN1CCN(CC(=O)N2N=C(c3ccc(OC)cc3)CC2c2ccc(OC)cc2)C(=O)C1=O (stereo not given)
 : -1, 0, 11, 0.2, 2.7%, -0.8
COCC1CCN(C(=O)c2cc(COc3ccc(OC)c4ccccc34)on2)C1 (stereo not given)
 : 24, 18, -5, 0.9, -1.9%, 2.2
CCOC(=O)c1ccc(N/C=C2\CCCCC2=O)cc1
 : -15, 0, -4, -0.9, -2.3%, -1.5
O=C(/C=C/[C@H]1O[C@@H](n2cnc3c(NC(=O)c4ccccc4)ncnc32)[C@H](O)[C@@H]1O)NCCc1c[nH]c2ccccc12
 : -2, -6, 1, -0.5, -0.2%, -2.6
CCC(C(=O)Nc1ccccc1Cl)n1nc(C)c2c(C)n(-c3ccccc3)nc2c1=O (stereo not given)
 : -3, -3, 0, 0.5, 2.9%, -3.9
O=C1NC[C@H](CCCCN2CCN(Cc3ccccc3)C(=O)C2=O)N(CCc2ccc(O)cc2)C1=O
 : nt, -8, -1, -0.4, -0.9%, nt
O=C(NC1CC1)C1CCN(c2ncnc3c2sc2cccc(F)c23)CC1
 : -10, -8, -2, -1.3, 1.0%, 3.9

Reprinted at random: three entries already listed.
Every second line gives: D2 PAM, Six1-Eya2 blk, CtBP-E1A inh, TRPML1 agonist, PINK1 modulator, D2 ag
Oc1ccc(N2CCN(C(c3ccncc3)c3nnnn3C3CCCC3)CC2)cc1 (stereo not given)
 : 24, -1, -3, 0.1, 0.0%[38.3 µM], 6.9
O=C(/C=C/[C@H]1O[C@@H](n2cnc3c(NC(=O)c4ccccc4)ncnc32)[C@H](O)[C@@H]1O)NCCc1c[nH]c2ccccc12
 : -2, -6, 1, -0.5, -0.2%, -2.6
CCOC(=O)c1ccc(N/C=C2\CCCCC2=O)cc1
 : -15, 0, -4, -0.9, -2.3%, -1.5

Screens from PubChem BioAssay.
